Screening results: PubChem BioAssay, National Center for Advancing Translational Sciences (NCATS)
TRPML1 ag = agonists of human TRPML1 channel; Q9GZU1; TRPML1-expressing cells, Ca2+ dye fluorescence, FDSS; host cell line not named in the record; reference of the full effect not given here; activation, % (test concentration not listed); 410,000 compounds, 0.12% hits; AID 624414; in the data active = activation above about 50%; inconclusive = about 30% to 50%; inactive = below about 30%; further: 0% is about no effect; the text of the record puts the active cut at 80%
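Cells: TRPML1-DL, 1X Tet inducer, ~16 h at 37 degrees C/5% CO2. Dye: ABD Ca8 no-wash + quencher, 45-90 min RT. Read: 10 s baseline, compound add, 110 s agonist phase; 54-4 EC80 (4uM final), 110 s antagonist phase.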
TRPML1 inh = inhibitors of human TRPML1 channel; Q9GZU1; TRPML1-inducible cells, Ca2+ dye fluorescence, FDSS; stronger effect = lower value; inhibition of EC80 agonist-evoked calcium signal; activity change, negative = inhibition, % (concentration not given with the values); 390,000 compounds, 0.02% hits; in the data active means activity change below about -50%; inconclusive means about -30% to -50%; inactive means above about -30%;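 further: stimulus is agonist 54-4 at its EC80 concentration; on the % scale 0 is the no-effect control and ±100 the full control effect; the text of the record puts the active cut at -80%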
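TRPML1-DL cells, Tet-induced overnight (~16 h, 37 °C) at 1,500 cells/well, were loaded with Ca8 no-wash dye plus quencher for 45-90 min at room temperature. Compounds were pinned during FDSS kinetic reading; agonist 54-4 at EC80 (4 uM final) then added.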
CtBP-E1A inh = blocks the CtBP interaction with E1A | AlphaScreen GST-E1A/His-CtBP binding, 1536-well; stronger effect = lower value; control for the full effect not named in the record | activity change, % (no concentration beside the values) | 340,000 compounds, 0.49% hits | AID 651724; in the data active means activity change below about -65%; inconclusive means about -30% to -65%; inactive means above about -30%; further: on the % scale 0 is the no-effect control and ±100 the full control effect
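In 5 uL wells, 23 nL compound meets equimolar GST-E1A and His-CtBP (5X stock 125 nM each) for 2 h, 37 °C. Beads (5X, 50 ug/mL) then 1 h, 37 °C, dark.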
Six1-Eya2 blk = Six1/Eya2 interaction inhibition. Q15475+O00167. AlphaScreen GST-Six1/His-Eya2 binding, biochemical; stronger effect = lower value; control for the full effect not named in the record. activity change, % (test concentration not listed). 360,000 compounds, 0.56% hits. AID 651725; in the data active = activity change below about -65%; inconclusive = about -30% to -65%; inactive = above about -30%; further: on the % scale 0 is the no-effect control and ±100 the full control effect
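Homogeneous AlphaScreen proximity assay pairing GST-Six1 with His-tagged Eya2 (added as 5X mix: 250 nM and 500 nM) in 50 mM Tris pH 8.0, 300 mM NaCl, 1 mM TCEP. Glutathione donor and nickel acceptor beads; 1 h, 37 °C, dark.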
D2 potentiator = human D2 receptor positive allosteric modulation. P14416. DiscoveRx D2 beta-arrestin cells, luminescence, 90 min; 100% = 57 uM dopamine signal. potentiation, % (test concentration not listed). 360,000 compounds, 0.23% hits. AID 624464; active = potentiation of 50% or more; inconclusive = 30% to 50%; inactive = 30% or less;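 further: compound concentration not given in the record; tested on top of an EC20 dose of dopamine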
Target sequence (P14416 whole entry, looked up): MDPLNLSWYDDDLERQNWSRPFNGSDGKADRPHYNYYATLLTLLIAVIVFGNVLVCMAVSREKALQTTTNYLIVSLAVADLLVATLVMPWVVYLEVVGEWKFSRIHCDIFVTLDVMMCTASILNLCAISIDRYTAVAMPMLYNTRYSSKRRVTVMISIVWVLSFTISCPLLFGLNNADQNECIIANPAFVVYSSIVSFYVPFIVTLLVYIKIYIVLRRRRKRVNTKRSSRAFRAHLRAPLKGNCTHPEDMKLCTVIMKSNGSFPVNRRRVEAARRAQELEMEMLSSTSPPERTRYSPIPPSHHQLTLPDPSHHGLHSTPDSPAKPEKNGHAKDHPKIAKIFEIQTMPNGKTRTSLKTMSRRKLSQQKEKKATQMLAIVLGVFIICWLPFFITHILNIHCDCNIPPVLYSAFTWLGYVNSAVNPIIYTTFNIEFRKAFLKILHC
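PathHunter beta-arrestin assay in DiscoveRx D2 cells. Compounds were added with an EC20 of dopamine (50 nM final) for 90 min at 37 deg C. Luminescence was read 1 h after detection reagent, with 57 uM dopamine as the EC100 control.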
TRPV1 potentiator = enhances activation of the human vanilloid receptor TRPV1 | potentiation, % at 8.33 µM | 320,000 compounds, 0.02% hits | TRPV1-expressing cells, Fluo-8 calcium influx, capsaicin EC20 potentiation; host cell line not named in the record; control for the full effect not named in the record | Q8NER1; active means potentiation above 80%; inconclusive means 30% to 80%; inactive means below 30%; further: 0% is about no effect
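Fluo-8 calcium influx in TRPV1-expressing cells, kinetic read (ex 480/em 520 nm). Compound added and read 3 min for agonist activity, followed by capsaicin at EC20 final and 2 min further read for enhancement.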
Starred values were filed as active, the others as inactive; u = inconclusive; x = not tested or not shown.

structure,TRPML1 ag,TRPML1 inh,CtBP-E1A inh,Six1-Eya2 blk,D2 potentiator,TRPV1 potentiator
O=C(NN1CC(C(=O)OCc2ccc(Br)cc2)CC1=O)c1ccccc1 (stereo not given),0.0,13,-7,7,-5,12
CCOc1ccc2c(=O)c(Oc3ccccc3OCC)coc2c1,2.9,-16,-4,1,-13,2
S=c1[nH]nc(Cc2ccccc2)n1-c1ccccc1,-0.9,13,3,1,12,0
CCOC(=O)N1CCC(NC(=O)c2cc3c(C)nc4ccccc4c3o2)CC1,-0.8,3,u,u,6,1
CCOc1ccc(CN2CCN(Cc3cc4ccccc4[nH]3)CC2CCO)cc1 (stereo not given),26,-2,-9,-7,-8,5
N#Cc1ccc(-c2nc3cc(Cl)ccc3c(=O)n2O)cc1,x,x,-17,0,-10,9
COc1cccc(C(=O)N2N=C(c3cccc(OC)c3)CC2(O)C(F)(F)F)c1 (stereo not given),2.3,2,10,4,-8,x
CC1CN(c2nc3ccccc3nc2NS(=O)(=O)c2ccccc2)CC(C)O1 (stereo not given),-0.6,-13,4,11,-3,x
NC(=O)C1CCN(C(=O)c2ccccc2SCC(=O)NCC2CCCCC2)CC1,0.3,22,-3,0,8,6
Cc1ccn2c(=O)nc(SCC(=O)Nc3cccc4ccccc34)nc2c1,-0.1,1,-1,-7,-2,24
Cc1cccc(N2C(=O)NC3(CCCCC3)C2=O)c1,-0.7,1,1,6,-17,7
O=c1c2c3n(c(=S)nc2[nH]n1-c1ccccc1)CCCCC3,-0.7,-8,-26,-18,-11,0
Cc1cc(C)c2c(=O)[nH]c(SCC(=O)c3ccc(F)c(C)c3)nc2n1,-0.3,-5,-15,10,4,1
Cc1ccc(Nc2nc(-c3ccc(S(=O)(=O)N4CCCC4)cc3)cs2)cc1C,1.6,24,-7,-13,-4,16
CCc1ccc2cc(C)cc(C)c2n1,-0.8,x,1,-1,-3,x
Cc1nc2ccccc2c(=O)n1/N=C/C=C/c1ccccc1,0.9,2,0,5,-3,-29
COc1ccc(-c2csc(NC(=O)CCS(=O)(=O)c3ccccc3)n2)c(OC)c1,1.3,3,5,-1,5,-11
CN(C)S(=O)(=O)c1ccc(Cl)c(NC(=O)COC(=O)C2CSC3(C)CCC(=O)N23)c1 (stereo not given),0.4,2,-4,5,-11,3
Cn1c(SCCS(=O)(=O)c2ccc(Cl)cc2)nnc1-c1ccccc1,0.8,39,4,-1,-21,-16
CCNc1c(NCC)c(=O)c1=O,-0.4,9,1,0,-4,4

A draw from above in order of molar mass, largest number first:
structure,TRPML1 ag,TRPML1 inh,CtBP-E1A inh,Six1-Eya2 blk,D2 potentiator,TRPV1 potentiator
CN(C)S(=O)(=O)c1ccc(Cl)c(NC(=O)COC(=O)C2CSC3(C)CCC(=O)N23)c1 (stereo not given),0.4,2,-4,5,-11,3
NC(=O)C1CCN(C(=O)c2ccccc2SCC(=O)NCC2CCCCC2)CC1,0.3,22,-3,0,8,6
Cc1ccc(Nc2nc(-c3ccc(S(=O)(=O)N4CCCC4)cc3)cs2)cc1C,1.6,24,-7,-13,-4,16
CC1CN(c2nc3ccccc3nc2NS(=O)(=O)c2ccccc2)CC(C)O1 (stereo not given),-0.6,-13,4,11,-3,x
Cn1c(SCCS(=O)(=O)c2ccc(Cl)cc2)nnc1-c1ccccc1,0.8,39,4,-1,-21,-16
Cc1ccn2c(=O)nc(SCC(=O)Nc3cccc4ccccc34)nc2c1,-0.1,1,-1,-7,-2,24
Cc1cc(C)c2c(=O)[nH]c(SCC(=O)c3ccc(F)c(C)c3)nc2n1,-0.3,-5,-15,10,4,1
O=c1c2c3n(c(=S)nc2[nH]n1-c1ccccc1)CCCCC3,-0.7,-8,-26,-18,-11,0
Cc1cccc(N2C(=O)NC3(CCCCC3)C2=O)c1,-0.7,1,1,6,-17,7
CCNc1c(NCC)c(=O)c1=O,-0.4,9,1,0,-4,4

Later entries.
structure,TRPML1 ag,TRPML1 inh,CtBP-E1A inh,Six1-Eya2 blk,D2 potentiator,TRPV1 potentiator
CC1CC(NNC(=O)c2ccccc2)=Nc2ccccc2N1C (stereo not given),1.6,7,2,2,6,-4
CCOc1ccc(N(CC(=O)Nc2ccc(Cl)cc2)S(C)(=O)=O)cc1,-0.4,1,-3,3,2,x
COc1cc(NC(=O)COC(=O)c2nc3nc(C)cc(C)n3n2)cc(OC)c1,0.4,-8,-1,0,-12,-3
NC(=O)NC(=O)COC(=O)CCCCCNS(=O)(=O)c1ccc2c(c1)OCCO2,-0.1,10,x,-1,-9,2
Cc1ccc(C(=O)N2CCN(c3ccccn3)CC2)cc1Cl,-0.9,-8,4,-2,0,-6
Cc1ccc(C)n1NC(=O)c1ccc(O)cc1,0.3,-1,3,0,0,4
CN(C(=O)c1coc(=O)c2ccccc12)c1ccc(F)cc1,0.5,-3,8,1,-11,0
CN(C)C(=O)c1ccc(Cl)cc1[N+](=O)[O-],0.6,12,19,-4,17,-6
O=C1CN(C(=S)Nc2ccccc2Cl)CCN1,0.3,18,-13,-4,-2,9
COc1cccc(/C=N/Nc2ncc(C)c(=O)[nH]2)c1OC,1.5,13,-1,3,5,4
O=C(CSc1nc(Cc2ccccc2)nc2ccccc12)Nc1nc2c(s1)CCCC2,6.1,19,-15,-7,-1,14
Cc1cc(C)cc(NC(=O)c2cc(C)nn2C)c1,-0.7,-2,9,-9,-6,-3
CCN(CC)CCNC(=O)c1cc(Nc2ccc(OC)c(OC)c2)nc2ccccc12,0.2,-13,-21,-20,-23,18
CC(=O)Nc1ccc(NC(=O)Cn2c(=O)n(-c3ccc(C)cc3)c(=O)c3oc4ccccc4c32)cc1,1.8,15,5,0,-1,-33
CC(C)N(Cc1nc(-c2ccccc2)no1)C(=O)c1ccc([N+](=O)[O-])cc1,1.7,6,x,-4,1,-1
COC(=O)C1=C(C)NC(C)=C(C(=O)OC)C1C(=O)OCC(=O)NC1CCCCC1C (stereo not given),-0.3,-4,-2,2,-4,x
Cn1nc(C(C)(C)C)cc1C(=O)N1CCCCC1c1cc(C(=O)Nc2ccc3c(c2)OCO3)no1 (stereo not given),-0.4,-3,-13,-18,-1,x
CCC(C(=O)N/N=C(\C)c1cccnc1)c1ccccc1 (stereo not given),0.7,-15,-1,1,-4,-10
O=C(Nc1nccs1)c1ccc(COc2ccc(F)cc2)o1,-0.4,-19,5,-6,3,-7
CNC(=O)/C(C#N)=c1\s/c(=C/C(=O)OC)c(=O)n1-c1ccccc1,-0.3,-1,3,3,-5,-5
Cn1c(CCNC(=O)c2cccs2)n[nH]c1=S,0.3,12,6,2,-7,-3
CC#C[C@]1(O)CC[C@H]2[C@@H]3CCC4=CC(=O)CCC4=C3[C@@H](c3ccc(N(C)C)cc3)C[C@@]21C,5.8,-1,u,u,-3,-9
Cc1cc(-n2nc3ccccc3n2)c(O)c([N+](=O)[O-])c1,-1.5,4,-2,4,-33,3
CCn1c(COc2c(C)cccc2C)nnc1SCc1nc2ccccc2c(=O)[nH]1,1.0,-12,-2,18,2,-5
Cc1cc(C(=O)CN2C(=O)C(=O)N(Cc3ccccc3)C2=O)c(C)n1-c1ccccc1F,2.0,-19,-7,-11,-7,-1
CCOc1cc(C(=S)N2CCOCC2)ccc1OS(=O)(=O)c1ccccc1,-0.9,25,-6,-2,11,-6
CC(=O)c1cc(CN2CCN(C3CCN(C(C)C)CC3)C(CCO)C2)cs1 (stereo not given),0.5,3,x,1,-9,7
COc1ccc(Cn2ccnc2)cc1Br,0.0,-5,-1,-6,15,u
OC1(c2nc3ccccc3[nH]2)CCCCC1,0.5,16,-6,5,-13,-16
Cc1ccc2nc(N(CCCN(C)C)C(=O)COc3ccc(Cl)cc3)sc2c1,-0.7,-7,0,-3,-18,-4
O=C(Nc1ccc(F)cc1)N1CCC(c2nc3c(nnn3Cc3ccccc3Cl)c(=O)[nH]2)CC1,-1.0,32,x,-4,-5,6
CCC(=O)c1ccc(OCC(=O)OCC(=O)N2c3ccccc3CC2C)cc1 (stereo not given),5.1,10,1,4,-4,-14
Cc1nc(C(=O)Nc2ccccc2)sc1C1(C)CC(c2cccc([N+](=O)[O-])c2)=NO1 (stereo not given),-0.3,10,-2,-16,-11,1
O=C(c1cc(-c2ccco2)on1)N1CCN(c2ccccc2)CC1,0.1,12,0,-1,-4,14
COc1ccc(C(C(=O)NC(C)(C)C)N(C(=O)Cn2nnc3ccccc32)c2ccc(C(C)=O)cc2)cc1O (stereo not given),-0.7,2,x,5,-13,-3
Cc1ccc(C)c(N2CCN(C(=O)c3ccc(N4CCCC4=O)cc3)CC2)c1,1.3,15,-3,2,-3,15
Cn1cccc1Cc1nnc(SCC(=O)N2CCN(c3ccccc3)CC2)n1-c1ccc(F)cc1,0.3,-21,-12,-25,-27,-8
Cc1ccc(S(=O)(=O)N2CCOCC2)cc1NC(=O)COC(=O)c1cnc(Cl)c(Cl)c1,-0.4,16,1,0,-12,6
Clc1ccc(CSc2nnc(-c3ccccn3)n2Cc2ccco2)c(Cl)c1,0.6,-3,-20,-7,-3,9
COCCNC(=O)c1cc(-c2ccccc2)n(Cc2cc(C)no2)n1,-1.3,-5,-3,13,-6,10
CCC(C)NCCCOc1ccc(C)cc1OC (stereo not given),-0.3,26,7,-10,-4,5
CCc1nnc(NC(=O)CSc2nnc(-c3ccccc3OC)n2-c2ccccc2)s1,0.7,36,-2,-3,-10,-1
